Insulin prom inh: TRM-6 insulin promoter activity inhibition; TRM-6 cells (human fetal islet line), insulin promoter-eGFP reporter, imaging; reporter expression induced with tamoxifen; hit rate 0.9% among 130,000; inhibition, % at 2 µM;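 active = inhibition above the mean plus 3 SD, with well images judged a real hit on visual review, cut at about 60% in these data, passing the limit was not always enough; inconclusive = inhibition over the cutoff but images rejected on review; inactive = inhibition not above the cutoff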
HSV augment: HSV replication enhancement | HSV replication augmentation in cells, fold increase | hit rate 0.005% among 220,000 | maximum fold increase | AID 1956;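 active = peak rise of 1.5-fold or more in the series; inconclusive = self-fluorescent or not available for retest; tested in PC3 cells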;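 note: first round at 10 µM; read as green reporter fluorescence; hits show the peak of a series up to 25 µM; 1 = signal of infected wells without compound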
RGS16-Gao HTS: regulators of human RGS16-Galphao interaction. O15492+P09471. bead-based flow cytometry RGS16-Galphao binding, fluorescence; actives lie on both sides. binding response (% of control), % at 10 µM. hit rate 0.38% among 220,000. AID 1441;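 active = below 25% or above 175%, edge rows of some plates excepted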;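 note: Galphao activated by GDP with aluminum fluoride before binding; 100% = wells without compound and 0% = beads without RGS; some results beyond the cut were filed as inactive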
GALR2 ag: agonists of human galanin receptor 2 (GALR2); activation, %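 (tested at 5 µM)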; GALR2-expressing cells, agonist activation read-out; hit rate 0.48% among 140,000; O43603;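 active = above mean plus 3 SD of all compounds, about 5% in these data, not always enough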;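 note: 0% = vehicle buffer wells and 100% = reference agonist at full effect; tested in CHO reporter cells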
PKD1 kinase inh: PKD1 (human) kinase inhibition | Q15139 | PKD1 kinase fluorescence polarization assay | inhibition, %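 (about 10 µM by stock and volumes)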 | hit rate 0.056% among 200,000 | AID 797;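 active = inhibition of 50% or more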;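 note: controls were vehicle for no effect and a reference inhibitor for full effect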
Target sequence (Q15139 whole entry, looked up): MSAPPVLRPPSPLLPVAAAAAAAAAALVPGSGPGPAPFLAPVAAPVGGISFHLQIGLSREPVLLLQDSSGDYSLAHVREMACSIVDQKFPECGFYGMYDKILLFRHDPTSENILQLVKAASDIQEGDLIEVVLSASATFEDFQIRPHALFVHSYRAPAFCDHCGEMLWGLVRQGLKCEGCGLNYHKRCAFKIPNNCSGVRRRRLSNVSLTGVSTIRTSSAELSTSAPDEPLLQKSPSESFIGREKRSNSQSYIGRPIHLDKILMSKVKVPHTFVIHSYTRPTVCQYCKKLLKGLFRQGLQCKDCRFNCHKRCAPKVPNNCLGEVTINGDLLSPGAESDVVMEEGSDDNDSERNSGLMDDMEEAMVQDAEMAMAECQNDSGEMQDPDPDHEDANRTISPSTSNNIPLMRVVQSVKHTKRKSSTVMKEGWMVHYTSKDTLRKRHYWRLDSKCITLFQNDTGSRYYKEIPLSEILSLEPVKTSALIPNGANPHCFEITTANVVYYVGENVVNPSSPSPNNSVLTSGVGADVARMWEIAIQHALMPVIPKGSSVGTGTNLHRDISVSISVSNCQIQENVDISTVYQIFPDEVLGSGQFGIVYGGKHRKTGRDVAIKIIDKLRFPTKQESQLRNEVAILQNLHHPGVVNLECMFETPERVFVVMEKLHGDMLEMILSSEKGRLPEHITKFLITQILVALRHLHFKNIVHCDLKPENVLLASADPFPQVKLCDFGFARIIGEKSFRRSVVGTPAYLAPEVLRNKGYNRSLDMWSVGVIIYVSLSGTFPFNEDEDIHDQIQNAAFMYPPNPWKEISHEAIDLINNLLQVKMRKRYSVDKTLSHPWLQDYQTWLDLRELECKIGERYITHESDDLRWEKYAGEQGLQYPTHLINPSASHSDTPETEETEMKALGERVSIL
Insulin prom inh cell count: second read-out of Insulin prom inh, no call of its own (marks repeat the call); normalized cell count, %; measured here: cell count, toxicity; reference of the scale not given here;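 cells exposed to compound for 48 h; stained nuclei by imaging scaled within each plate; lower means fewer cells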
HSV augment primary fold: further read-out of HSV augment, marked with its call; fold increase; compound at 10 µM; measured here: primary screen fold increase 10 uM; tested in PC3 cells;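 GFP signal in the first replicate; 1 = infected wells without compound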
Active calls of the source: *; i = inactive; u = inconclusive; x = no result given.

Order of values: Insulin prom inh, Insulin prom inh cell count, HSV augment, HSV augment primary fold, RGS16-Gao HTS, GALR2 ag, PKD1 kinase inh
> COc1nc(N(C)C)nc(N2CC(=O)N(CCNS(=O)(=O)c3ccc(C)cc3)C2=N)n1
  -39.5, 76.0, i, 0.94, 99.8, -2.0, -16.2
> CNCCCNCc1ccc(SC)cc1
  16.2, 202.7, u, x, 100.4, -3.4, -4.9
> Cc1cc(C)cc(Nc2ncc3c(n2)CC(c2ccco2)CC3=O)c1 (stereo unspecified)
  44.8, 88.3, i, 0.9, 91.9, -2.0, -5.8
> COc1cccc(CC2(CO)CCCN(CC3=Cc4cc(OC)ccc4OC3)C2)c1 (stereo unspecified)
  x, x, i, 0.92, 102.8, x, -2.0
> Cc1nnc(SCC(=O)Nc2ccccc2NC(=O)CSc2nnc(C)s2)s1
  30.8, 145.6, i, 0.79, 98.8, 1.0, 0.1
> C=CCn1c(=O)[nH]c2cc(C(=O)N3CC=C(c4ccccc4)CC3)ccc2c1=O
  x, x, i, 0.84, 98.0, x, -4.1
> CN(C)CCOc1cccc(Br)c1
  x, x, i, 0.97, 103.0, x, -2.1
> Cc1cc(C=O)c2c(c1)C=CC1(Oc3ccccc3C(=O)N1C)O2 (stereo unspecified)
  -28.6, 116.8, x, x, 103.8, -0.4, -5.4
> Cc1ccc(C2(CCNC(C)c3cccs3)CCOC(C(C)C)C2)cc1 (stereo unspecified)
  x, x, i, 0.83, 99.7, x, -7.2
> COc1ccccc1Nc1nc(-c2cccs2)cs1
  x, x, i, 1.19, 96.6, -1.8, 0.4
> Cc1ccc(C(=O)C(OC(=O)c2cnccn2)c2ccccc2)cc1 (stereo unspecified)
  x, x, i, 0.99, 113.3, x, 5.5
> COCCn1c(SCC(=O)c2cccc(OC)c2)nnc1-c1ccco1
  40.7, 127.8, i, 0.87, 98.2, -0.7, -2.0
> C=CCNC(=O)C1CC(=O)N(c2ccc(OCC(=O)Nc3cccc(OC)c3)cc2)C1 (stereo unspecified)
  9.3, 98.4, i, 0.99, 101.6, 2.2, -8.2
> COc1ccc(C)cc1NC(=O)C(Sc1nnc(-c2ccncc2)n1-c1ccc(Cl)cc1)c1ccccc1 (stereo unspecified)
  x, x, i, 0.96, 111.5, -0.6, 13.1
> CCOC(=O)c1sc(=S)n(-c2cc(OC)ccc2OC)c1N
  x, x, i, 1, 47.5, 0.0, -5.1
> O=C(Cc1cccs1)NCCCc1ccccc1
  x, x, i, 1.06, 101.3, x, 0.2
> CCOC(=O)c1ccc(N2C(=O)CC(N3CCC(C(N)=O)(N4CCCCC4)CC3)C2=O)cc1 (stereo unspecified)
  -420.0, 51.8, i, 0.95, 101.2, -0.9, -2.6
> CCc1ccc(NCCC(=O)c2ccc(Cl)cc2)cc1
  x, x, i, 1.01, 100.8, -0.3, 11.8
> COc1cc(/C=N/NC(N)=S)ccc1OCC(=O)N1CCOCC1
  x, x, i, 1.1, 104.6, -1.2, 7.4
> COc1ccc(OCC(=O)Nc2c3c(nn2C(C)(C)C)CSC3)cc1
  x, x, i, 0.89, 100.4, x, -8.0
> O=c1c2ccccc2ncn1-c1ccc(Cl)cc1Cl
  x, x, i, 1.06, 99.9, x, x
> CN(CCc1ccccn1)C(=O)CCC1CCCN(C(=O)c2c3c(nn2C)CCCC3)C1 (stereo unspecified)
  x, x, i, 1.04, 103.5, x, 0.9
> Cc1ccc(S(=O)(=O)/N=C/c2cc(Br)ccc2O)cc1
  17.6, 101.5, i, 1.03, 106.4, x, -6.2
> CN(C)CC1CCCCC1C1(O)c2ccccc2CSc2sccc21 (stereo unspecified)
  -81.0, 128.1, i, 1.03, 103.5, -0.9, 6.1
> OCC1(CCCc2ccccc2)CCN(Cc2cc(F)ccc2F)CC1
  x, x, i, 0.94, 97.4, x, 3.9
> O=S(=O)(c1ccc2c(c1)OCCO2)N1CCN(c2nc3ccccc3s2)CC1
  x, x, i, 0.75, 99.4, -2.3, -6.5
> COc1ccc(N2C(=O)CC(NC3CCCCNC3=O)C2=O)cc1 (stereo unspecified)
  60.0, 75.9, i, 0.88, 94.0, -4.4, -8.6
> Cn1ccnc1SCC(=O)Nc1cccc([N+](=O)[O-])c1
  x, x, i, 0.88, 95.6, x, -1.8
> CCn1c(=N)n(CC(O)c2ccccc2)c2ccccc21 (stereo unspecified)
  -37.9, 102.3, i, 0.99, 111.2, -2.2, 1.9
> O=c1oc2ccc(Cl)cc2nc1/C=C(\O)c1cccs1
  x, x, i, 0.74, 95.8, x, x
> Cc1cccc(C)c1NC(=O)CN(C)CC(=O)Nc1ccccc1Br
  -9.3, 111.2, i, 0.83, 97.7, -1.5, 4.3
> COc1ccc(S(=O)(=O)NNC(=O)c2sccc2-n2cccc2)cc1
  x, x, i, 0.88, 101.4, x, -3.2
> O=C(Nc1c(C(=O)Nc2cccc3ccccc23)cnn1-c1ccccc1)c1ccco1
  10.5, 114.8, i, 1.05, 105.0, -1.4, -14.6
> COc1cc(CNCc2cccnc2)ccc1OCc1ccccc1
  -54.5, 76.2, i, 0.99, 111.5, x, -6.5
> O=C1CCCC/C1=C\Nc1ccccc1C(=O)O
  x, x, i, 0.92, 101.2, -0.8, -5.0
> CC1CCCCN1C/C=C/c1ccccc1[N+](=O)[O-] (stereo unspecified)
  x, x, i, 0.91, 106.0, -2.9, -3.0
> COc1cccc(Nc2nnc(SCC(=O)N3CCOCC3)s2)c1
  x, x, i, 0.96, 94.4, -2.7, -9.0
> CCN(CC(=O)Nc1ccc2c(c1)OCCO2)CC(=O)Nc1ccc2c(c1)OCO2
  x, x, i, 0.89, 97.2, x, -11.8
> Cc1cnc(NS(=O)(=O)c2ccccc2)c(Br)c1
  x, x, i, 1.29, 100.9, x, x
> O=C(CSc1cccc[n+]1[O-])Nc1ccc2c(c1)OCCO2
  x, x, i, 0.9, 101.0, x, -2.6
> CNC(=O)CSc1ncnc2c1cnn2-c1ccccc1
  53.9, 70.9, i, 1, 100.9, x, -4.5
> CCOC(=O)C1=C(C)NC2=C(C(=O)C(C(=O)OCC)C(c3ccc(OC)cc3)C2)C1c1ccccn1 (stereo unspecified)
  -46.0, 44.3, i, 0.94, 86.5, 1.8, 0.2
> CC1=CC(=C(C#N)C#N)c2ccccc2N1C
  x, x, i, 0.83, 96.1, x, -4.4
> CC12CCC(c3c(C(=O)O)nn(-c4ccccc4)c31)C2(C)C (stereo unspecified)
  x, x, i, 0.85, 103.9, -0.3, -7.8
> CCn1c(SCC(=O)Nc2cc(NC(C)=O)ccc2OC)nnc1-c1ccncc1
  -60.0, 145.7, i, 0.97, 101.9, -1.4, -8.3
> NNC(=O)c1cc2ccccc2[nH]1
  x, x, i, 0.78, 100.0, x, -0.9
> Fc1cccc(/C=N/NC(=S)Nc2ccccc2Cl)c1
  23.3, 128.4, i, 0.81, 98.5, 0.5, -0.9
> O=C([C@H](O)c1ccccc1)N1CCC[C@H]1CO
  -30.8, 145.3, i, 1.08, 103.7, -0.6, 5.1
> CC(=O)c1c(C)oc2ccc(NS(=O)(=O)c3ccc(O)c(C(=O)O)c3)cc12
  0.3, 130.3, i, 0.99, 89.3, -1.0, 4.5
> CN(C)CCCN=Cc1c(O)n(Cc2ccccc2)c(=O)c2ccccc12
  7.7, 112.0, i, 0.94, 106.3, 0.0, 4.2
> COC(=O)c1ccc(NC(=O)C2CC2)o1
  -26.5, 141.9, i, 0.9, 103.8, -1.1, 14.8
> CCN(C(=O)c1cccnc1)c1ccccc1
  -3.6, 83.9, i, 1.01, 107.8, 0.6, -6.0
> CSc1cccc(NC(=O)CSc2ccc(Cl)cc2)c1
  40.0, 57.1, i, 0.963, 103.4, 0.0, 1.2
> COc1ccc(-c2cc(C(=O)Nc3ccc(Cl)cc3Cl)c3ccccc3n2)cc1OC
  23.1, 143.9, i, 0.84, 108.2, 0.1, -5.6
> COCCCN1C(=O)C(O)=C(C(=O)c2ccc(C)o2)C1c1cccc(Br)c1 (stereo unspecified)
  20.0, 114.2, i, 0.99, 101.5, -1.6, -28.8
> COCCn1c(SCC(=O)c2c[nH]c3ccccc23)nnc1-c1ccncc1
  33.3, 91.4, i, 1.12, 82.6, -1.8, -4.9
> COC(=O)c1sccc1NC(=O)c1ccccc1
  69.2, 76.7, i, 0.98, 128.4, x, 13.7
> CCNc1nc(NC(C)(C)C)nc(N2CCCC2)n1
  43.8, 155.4, x, x, 106.9, -0.3, -6.3
> C=CCn1c(N2CCOCC2)nc2c1c(=O)[nH]c(=O)n2C
  -62.5, 67.5, i, 1.03, 97.5, x, -5.8
> Cc1cccc2nc(CSc3nc4[nH]ncc4c(=O)n3-c3ccccc3Cl)cc(=O)n12
  27.8, 93.4, i, 0.81, 106.2, 1.9, -12.3

Next section:
Order of values: Insulin prom inh, Insulin prom inh cell count, HSV augment, HSV augment primary fold, RGS16-Gao HTS, GALR2 ag, PKD1 kinase inh
> CO/N=C/c1ccc(Sc2ccc(C)cc2)c([N+](=O)[O-])c1
  10.3, 98.6, i, 0.99, 96.2, -1.9, -7.6
> COC(=O)C(CC(C)C)NC(=O)c1cccs1 (stereo unspecified)
  11.1, 86.3, i, 1.09, 96.7, x, 0.6
> O=C(CN1C(=O)C2CCCCC2C1=O)N1CCN(c2ccc(F)cc2)CC1 (stereo unspecified)
  x, x, i, 0.97, 97.6, x, -3.4
> Cc1ccc(S(=O)(=O)Nc2ccc(SC(F)F)cc2)c(C)c1
  17.9, 107.3, i, 1.01, 83.5, -0.9, -13.9
> CCC1CCC/C1=N\NC(=O)c1cc(C)[nH]n1 (stereo unspecified)
  29.6, 113.0, i, 1.11, 106.4, -1.6, 0.1
> O=C(OC(C(=O)NCc1cccs1)c1ccccn1)c1cccs1 (stereo unspecified)
  43.5, 93.2, i, 0.98, 103.9, 0.5, -2.1
> CC(C)(C)NC(=O)C(=O)NNC(=O)c1ccccc1Br
  x, x, i, 0.97, 99.3, x, -13.3
> C=CCNC(=O)c1onc(CSc2cc(C)cc(C)c2)c1C(=O)NCC=C
  x, x, i, 0.92, 96.3, x, x
> C/C(=N\NC(=O)COc1ccc(C)cc1C(C)C)c1ccc(-n2ccnc2)cc1
  x, x, i, 0.87, 90.8, -0.2, -0.8
> C/C(Cn1cnc([N+](=O)[O-])n1)=N/NC(=O)COc1ccccc1Cl
  -16.7, 103.0, i, 0.91, 115.8, 0.0, 6.4
> N#Cc1ccccc1/C=N/Nc1nc(-c2ccccc2)c2cc(Cl)ccc2n1
  x, x, i, 0.863, 91.2, -0.3, -12.0
> O=[N+]([O-])c1cc(C(F)(F)F)ccc1NCCCN1CCOCC1
  x, x, i, 0.9, 99.4, x, -1.9
> COc1ccc(CN2CCCC(C(=O)N(C)Cc3ccccc3)C2)cc1OC (stereo unspecified)
  x, x, i, 0.87, 90.7, -1.9, 1.5
> Cc1cccc(N=C2NC(=O)/C(=C/c3cccn3C)S2)c1
  x, x, i, 0.89, 97.7, x, x
> CCSc1nnc(NC(=O)C2CC(=O)N(Cc3ccc(C)cc3)C2)s1 (stereo unspecified)
  x, x, i, 0.96, 104.5, x, -5.0
> Cc1noc(/C=C/c2ccco2)c1S(=O)(=O)N1CCC(C(=O)N2CCc3ccccc3C2)CC1
  x, x, x, x, 95.2, -3.2, -3.5
> COc1ccc(C2Nc3cc(OC)ccc3-n3cccc32)cc1 (stereo unspecified)
  x, x, i, 1.04, 95.8, x, x
> CN(c1ccccc1C(=O)Nc1ccc(F)c(F)c1)S(C)(=O)=O
  x, x, i, 1.08, 107.5, x, 6.0
> C=CCOc1cccc(C2/C(=C(/O)c3ccc(Cl)cc3)C(=O)C(=O)N2CCN2CCOCC2)c1 (stereo unspecified)
  26.7, 137.7, i, 0.82, 99.9, 0.0, -5.9
> COc1ccc2cc3c(N)c(C(=O)NCc4ccco4)sc3nc2c1
  x, x, i, 1.2, 96.7, 0.0, -3.5
> O=C(Nc1ccc(F)cc1Cl)c1ccc2c(=O)n3c(nc2c1)CCCCC3
  x, x, i, 0.91, 105.5, 0.1, -7.5

Part of the list above in order of SMILES length, lowest first:
Order of values: Insulin prom inh, Insulin prom inh cell count, HSV augment, HSV augment primary fold, RGS16-Gao HTS, GALR2 ag, PKD1 kinase inh
> COc1ccc(C2Nc3cc(OC)ccc3-n3cccc32)cc1 (stereo unspecified)
  x, x, i, 1.04, 95.8, x, x
> O=C(OC(C(=O)NCc1cccs1)c1ccccn1)c1cccs1 (stereo unspecified)
  43.5, 93.2, i, 0.98, 103.9, 0.5, -2.1
> Cc1ccc(S(=O)(=O)Nc2ccc(SC(F)F)cc2)c(C)c1
  17.9, 107.3, i, 1.01, 83.5, -0.9, -13.9
> COc1ccc(CN2CCCC(C(=O)N(C)Cc3ccccc3)C2)cc1OC (stereo unspecified)
  x, x, i, 0.87, 90.7, -1.9, 1.5
> C/C(Cn1cnc([N+](=O)[O-])n1)=N/NC(=O)COc1ccccc1Cl
  -16.7, 103.0, i, 0.91, 115.8, 0.0, 6.4
